Screening data deposited in PubChem by National Center for Advancing Translational Sciences (NCATS).
Rango complex inh – qHTS Assay for Inhibitors of Rango (Ran-regulated importin-beta cargo) - Importin beta complex formation | 0.031% of 340,000 active | Potency, µM (series often up to 92.2 µM), without a hit: top-dose inhibition of complex formation | Importin subunit beta-1 (Homo sapiens), Q14974 | Rango CFP/YFP FRET sensor + importin beta, 45 min; active = rising FRET ratio curve, often small or poorly fitted; inconclusive = mostly compound fluorescence or quenching in the first reads; inactive = flat curves in all reads;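 further: potency means the concentration at half of the fitted maximal effect; 0% = DMSO wells and 100% = buffer wells lacking importin beta; nearly all actives have a fitted effect of over 15% in size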
Target sequence (Q14974 whole entry, looked up): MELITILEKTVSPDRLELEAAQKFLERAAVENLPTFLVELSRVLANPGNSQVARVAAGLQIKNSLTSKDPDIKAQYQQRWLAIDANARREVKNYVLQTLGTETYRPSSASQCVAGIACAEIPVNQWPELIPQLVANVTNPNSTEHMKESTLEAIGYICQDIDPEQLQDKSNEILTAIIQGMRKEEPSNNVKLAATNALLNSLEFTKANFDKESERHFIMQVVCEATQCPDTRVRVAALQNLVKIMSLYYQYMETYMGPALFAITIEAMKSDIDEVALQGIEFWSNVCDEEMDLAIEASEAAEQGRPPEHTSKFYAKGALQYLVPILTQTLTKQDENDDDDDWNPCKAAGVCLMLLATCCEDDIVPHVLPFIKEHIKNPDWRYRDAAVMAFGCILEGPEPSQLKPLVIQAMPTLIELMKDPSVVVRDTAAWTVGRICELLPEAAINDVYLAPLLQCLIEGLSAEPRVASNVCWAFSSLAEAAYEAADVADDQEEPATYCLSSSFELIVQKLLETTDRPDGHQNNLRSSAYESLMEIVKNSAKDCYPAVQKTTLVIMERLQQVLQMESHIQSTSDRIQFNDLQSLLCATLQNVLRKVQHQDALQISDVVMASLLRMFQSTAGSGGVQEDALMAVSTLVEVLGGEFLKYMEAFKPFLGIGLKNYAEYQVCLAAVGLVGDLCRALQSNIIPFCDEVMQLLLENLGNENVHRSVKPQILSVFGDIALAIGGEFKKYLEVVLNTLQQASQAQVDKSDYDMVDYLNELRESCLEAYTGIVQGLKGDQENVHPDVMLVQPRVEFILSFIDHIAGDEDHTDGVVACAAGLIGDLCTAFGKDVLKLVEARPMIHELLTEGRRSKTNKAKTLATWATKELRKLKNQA
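FRET biosensor Rango (snurportin 1 IBB between N-terminal EYFP and C-terminal Cerulean), 50 nM in PBS/1 mM DTT/0.02% Tween-20/0.1% BSA, preincubated 5 min RT with compound; 0.125 microM importin beta added, 45 min RT, CFP/YFP FRET ratio read.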
Rango release inh – qHTS Assay for Inhibitors of RanGTP induced Rango (Ran-regulated importin-beta cargo) - Importin beta complex dissociation; 0.071% of 340,000 active; Biochemical FRET Rango-importin beta, RanGTP-induced dissociation; Potency, µM (top dose mostly 46.1 µM), for inactives: at the highest dose activity change, negative = inhibition; Snurportin-1 (Homo sapiens) + GTP-binding nuclear protein Ran (Homo sapiens) + Importin …; AID 540253, 2011; active means falling FRET ratio curve, often poorly fitted, with flat reads before Ran was added; inconclusive means other falling curves, or compound fluorescence or quenching; inactive means flat or rising ratio curve;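 further: potency means the concentration at half of the fitted maximal effect; % of control where 0% means no effect; nearly all actives have a fitted effect of over 45% in size; -100% = wells without RanGTP and RCC1; the record marks most hits as doubtful in a second field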
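Compounds sat 5 min at room temperature with 0.1 uM Rango biosensor plus 0.25 uM importin beta, then FRET pre-read. RanGTP-RCC1 (0.6 uM Ran, 2mM GTP, 0.2 uM RCC1) added for 45 min, and the CFP/YFP post-read measured blocked complex dissociation.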
miR-21 FLuc – qHTS Assay for Modulators of miRNAs and/orActivators of miR-21; 340,000 tested, under 10 active; HeLa miR-21 FLuc reporter, luciferase, 48 h; Potency, µM (series often up to 38.3 µM), without a hit: top-dose reporter change, positive = more light; active = well fitted rising curve with a large enough effect; inconclusive = small, poorly fitted or top-dose-only effect; inactive = no such curve, though single readings can be large or run the other way;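 further: % of control where 0% means no effect; miR-21 action dims this reporter so a rising signal means less miR-21 action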
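Using DMEM plus 10% FBS, HeLa miR-21-FLuc cells are incubated with test compounds (final up to about 40uM) for 48 hours; firefly luciferase signal is then imaged following reagent-mediated lysis.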
GLA inh pH 4.5 – qHTS Assay for Inhibitors of Human alpha-Galactosidase at pH 4.5; purified enzyme, 4-MU-alpha-Gal fluorescence, pH 4.5; activity change, negative = inhibition, % at 105 µM; 230,000 tested, under 10 active; AID 1467, 2008; inconclusive = small, poorly fitted or top-dose-only inhibition, or a rising curve; inactive = flat fitted curve, though single readings scatter; no compound was filed as active;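 further: 0% = full activity with enzyme and -100% = basal without enzyme; dose as in the result columns while the protocol names 77 µM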
Starred values were filed as active, the others as inactive; ? = inconclusive; / = no result given; & = joins results of further samples.

SMILES	miR-21 FLuc	Rango complex inh	GLA inh pH 4.5	Rango release inh
CN1C2CCC1CC(OC(c1ccccc1)c1ccccc1N)C2 (stereo not drawn)	/	-0.7%	-4&3	-8%
CN(C)c1ccc(C=C2C(=O)NC(=O)NC2=O)cc1[N+](=O)[O-]	-1%	-1.4%	-10	7%
CCOP(=S)(OCC)Oc1nc(Cl)c(Cl)cc1Cl	/	0.2%	0	-1%
Cc1cc(Oc2cc(NN3CCCCC3)c([N+](=O)[O-])cc2[N+](=O)[O-])ccc1[N+](=O)[O-]	-1%	-0.6%	/	3%
CC(=O)N1CC(=O)Nc2ccc(F)cc2C1c1ccccc1 (stereo not drawn)	-1%&8%	-1.8%	/	-11%
O=C(c1cccs1)C1CN2CCC1CC2 (stereo not drawn)	-1%	3.2%	1	-14%
COc1ccc(CNCCc2c[nH]c3ccccc23)c(OC)c1C	10%	1.1%	/	6%
CCC1(CC)C(=O)NC(=NCCc2c[nH]c3ccccc23)NC1=O	-4%	0.3%	-1	-5%
Cc1nonc1OCCNCCNc1ccc([N+](=O)[O-])c2cccnc12	-5%	-3.2%	-16	-14%
CC[N+]1(C)CCCC(OC(=O)C(O)(c2ccccc2)c2ccccc2)C1 (stereo not drawn)	-7%	0.5%	3&0	2%
COC(=O)C(=O)N1CC2(C)CNCC(C)(C1)C2=O	1%	-0.9%	-3	-11%
CCC(=NCCOc1ccc(Cl)cc1)c1c(O)n(C)c(=O)n(C)c1=O	10%	3.7%	-7	5%
CCN1c2nc3c(C)cccn3c(=O)c2CC2(C(=O)N(C)C(=O)N(C)C2=O)C1C (stereo not drawn)	-2%	-0.6%	2	0%
CN(C(=O)Oc1ccc(Cl)c2cccnc12)c1ccccc1	-13%	4.0%	-6	5%
CC12CN3CC(C)(CN(C1)C3c1cccs1)C2 (stereo not drawn)	-1%	-0.6%	-3	-1%
COC(=O)C1=C(c2ccc(OCc3ccccc3)cc2)C[C@@H]2CC[C@H]1N2C(=O)NCc1ccc(OC)c(OC)c1	/	0.1%	/	-7%
CCC12CN3CC(CC)(CN(C1)C3c1cccnc1)C2=O (stereo not drawn)	-4%	3.2%	-2	8%
C=C(C)CSc1nnc([C@@H](N)Cc2c[nH]c3ccccc23)o1	-20%	0.6%	3	-8%
CC12CCC(=O)C=C1CCC1C2CCC2(C)C1CCC2(O)CC#N (stereo not drawn)	/	0.4%	/	23%
Nc1ccccc1-[n+]1c(-c2ccccc2)cc(-c2ccccc2)cc1-c1ccccc1	?	5.4%	-6	5%
C[C@]12CCC(=O)C=C1CC[C@@H]1C2[C@H](O)C[C@]2(C)C(=O)CCC12 (stereo partly drawn)	5%	2.9%	/	1%
O=C(C(=O)N1CCC2(CC1)OCCO2)c1c[nH]c2ccccc12	-10%	0.8%	3	-2%
Cc1cccc(OP(=O)(Nc2ccc(F)cc2)Oc2cccc(C)c2)c1	1%	-1.2%	-3	-7%
Cc1cc(/C=C2/C(=O)NC(=O)N(C)C2=O)c(C)n1-c1ccccc1	3%	-0.6%	3	2%

In another format: results already given.
Order of values – miR-21 FLuc	Rango complex inh	GLA inh pH 4.5	Rango release inh
- C[C@]12CCC(=O)C=C1CC[C@@H]1C2[C@H](O)C[C@]2(C)C(=O)CCC12 (stereo partly drawn)
    5%	2.9%	/	1%
- O=C(C(=O)N1CCC2(CC1)OCCO2)c1c[nH]c2ccccc12
    -10%	0.8%	3	-2%

(more compounds)
SMILES	miR-21 FLuc	Rango complex inh	GLA inh pH 4.5	Rango release inh
O=C(N/N=C/c1c(O)n(C2CC2)c(=S)[nH]c1=O)c1ccccc1O	-42%	?	-3	?
CCOP(=O)(OCC)C(NC(=O)NC)C(N)=O (stereo not drawn)	-1%	-0.3%	1	0%
CCCCCCC(N)CC(=O)O (stereo not drawn)	0%	5.3%	2	-12%
COC(=O)C1C(=O)C=C(Nc2ccc(F)cc2F)CC1c1ccccc1 (stereo not drawn)	-51%	2.4%	-1	3%
c1ccc2c(c1)CNc1ccccc1O2	1%	5.0%	0	10%
CN(C)c1ccc(-[n+]2c(-c3ccccc3)cc(-c3ccccc3)cc2-c2ccccc2)cc1	?	0.9%	0	14%
Cc1c(C)c2ccc(OCC(=O)N3C[C@H]4C[C@@H](C3)c3cccc(=O)n3C4)cc2oc1=O	-2%	0.6%	/	4%
C/C=C(\C)C(=O)N[C@@H](c1ccccc1)[C@@H](O)C(=O)O[C@H]1C[C@@]2(O)[C@@H](OC(=O)c3ccccc3)C3[C@](C)(C(=O)[C@H](O)C(=C1C)C2(C)C)[C@@H](O)C[C@H]1OC[C@@]31OC(C)=O (stereo partly drawn)	13%	-2.4%	/	-6%
Cc1ccc(C2=NCC(=O)N(CC(=O)N3CCCCC3)c3sc(C)c(C)c32)cc1	2%	0.4%	-7	12%
CN1/C(=C\C=C\C2=[N+](C)c3ccc4ccccc4c3C2(C)C)C(C)(C)c2ccccc21	?	/	5	/
C[C@]12CCC3C(CC[C@H]4C[C@H](O)CC[C@]34C)C1C[C@@H](O)[C@@H]2O (stereo partly drawn)	/	-2.4%	/	3%
Cc1ccc(C2=CCNCC2)cc1	-2%	4.4%	-10	14%
Cc1c(OC(=O)N(C)C)ccc2c1O/C(=C\c1ccco1)C2=O	-48%	?	/	?
FC(F)(F)c1cccc(N2CCNCC2)c1	-2%	/	4&-1	/
CCOC(=O)C(C)Oc1cc(C)cc2oc(=O)c3c(c12)CCCC3 (stereo not drawn)	0%	-0.7%	-2	?
CCCCCC1(C(C)C)C(=O)NC(=S)NC1=O	/	3.8%	/	3%
CN1C(=O)C(=Cc2ccccc2OS(=O)(=O)c2ccccc2)C(=O)N(C)C1=O	-7%	?	/	11%
COc1cc2c3c(c1OC)Oc1ccc(cc1)C[C@H]1c4c(cc(OC)c(OC)c4Oc4ccc(cc4)C[C@@H]3N(C)CC2)CCN1C	/	0.3%	/	-13%
Cc1ccc(NC2=NCCCS2)c(C)c1C	6%	-2.3%	3	-6%
Clc1ccccc1C1NCc2ccccc2-n2cccc21 (stereo not drawn)	4%	-3.6%	-5	-1%
O=C(Cc1ccccc1)N1CCN(CC2CC3C=CC2C3)CC1 (stereo not drawn)	-6%	?	4	?
CCOc1ccc(N=Cc2c(O)n(-c3ccc(C)c(C)c3)c(=O)[nH]c2=O)cc1	2%	0.9%	-1	-3%
COCCNC(=O)Cn1cc(/C=C2\C(=O)NC(=O)N(c3ccccc3F)C2=O)c2ccccc21	6%	0.1%	/	1%
CCCCCn1c(=O)c(C(=O)NCc2ccccn2)c(O)c2ccccc21	-6%	0.4%	-4	-4%
CC(=O)OC1C(O)C(C)OC(OC2C(OC(=O)C3CCC4C(C3)OC3(CC(OC(=O)/C=C/c5ccccc5)C(C)CO3)C43CO3)OC(C)C(O)C2OC(C)=O)C1O (stereo not drawn)	/	1.9%	/	2%
Cc1ccccc1-n1c(O)c(/C=N/N2CCOCC2)c(=O)[nH]c1=S	1%	?	3	14%
Cc1ccc(N2C(=O)NC(=O)/C(=C\c3ccsc3)C2=O)cc1C	-4%	/	-11	/
Cc1c(CCN)ccc2c1[nH]c1ccccc12	-36%	-0.3%	4	3%
O=c1[nH]c2ccccc2c(=O)n1-c1cccc(Cl)c1	-5%	0.1%	13	0%
Nc1ccc2c(c1)Cc1ccccc1-2	-40%	-0.8%	1	0%
C[C@]12N[C@H](Cc3ccccc31)c1ccccc12	/	0.4%&0.1%	6	-20%&19%
COC(=O)C1=C(c2ccc(F)cc2OCc2ccccc2)C[C@@H]2CC[C@H]1N2C(=O)NCc1ccccc1OC	/	0.5%	/	-8%
O=c1[nH]c(=O)n(Cc2ccc(F)cc2)c(O)c1C=NCC1CCCO1 (stereo not drawn)	-4%	3.5%	-5	24%
CNC(=O)Oc1ccc(-c2cn3cc(Cl)ccc3n2)cc1	?	?	2	6%
O=C1CN=C(c2cc([N+](=O)[O-])ccc2Cl)c2cc([N+](=O)[O-])ccc2N1	/	-5.6%	/	-8%
COc1cc(C2(C#N)CCN(C)CC2)cc(OC)c1OC	/	-0.1%	/	-10%

4 of these compounds, reformatted.
SMILES: C[C@]12N[C@H](Cc3ccccc31)c1ccccc12
- miR-21 FLuc: /
- Rango complex inh: 0.4%&0.1%
- GLA inh pH 4.5: 6
- Rango release inh: -20%&19%
SMILES: COC(=O)C1=C(c2ccc(F)cc2OCc2ccccc2)C[C@@H]2CC[C@H]1N2C(=O)NCc1ccccc1OC
- miR-21 FLuc: /
- Rango complex inh: 0.5%
- GLA inh pH 4.5: /
- Rango release inh: -8%
SMILES: O=c1[nH]c(=O)n(Cc2ccc(F)cc2)c(O)c1C=NCC1CCCO1 (stereo not drawn)
- miR-21 FLuc: -4%
- Rango complex inh: 3.5%
- GLA inh pH 4.5: -5
- Rango release inh: 24%
SMILES: CNC(=O)Oc1ccc(-c2cn3cc(Cl)ccc3n2)cc1
- miR-21 FLuc: ?
- Rango complex inh: ?
- GLA inh pH 4.5: 2
- Rango release inh: 6%

More structures:
SMILES	miR-21 FLuc	Rango complex inh	GLA inh pH 4.5	Rango release inh
Nc1ccc(S(=O)(=O)N2CC3CC(C2)c2cccc(=O)n2C3)cc1 (stereo not drawn)	-4%	-4.3%	-3	?
c1ccc(C2OCCN3CCCCC23)cc1 (stereo not drawn)	?	-2.6%	0	2%
Cc1cccc(N=C2c3cc([N+](=O)[O-])ccc3-c3c2cc([N+](=O)[O-])cc3[N+](=O)[O-])c1	/	0.5%	/	12%
Cc1ccc(-c2nc(CS(=O)CC(=O)N3CCC4(CC3)OCCO4)c(C)o2)cc1 (stereo not drawn)	0%	/	-10	/
Cc1nn(Cc2ccccc2)c(C)c1C=C1C(=O)NC(=O)NC1=O	2%	?	1	-9%
CSc1ccc(C(=O)C2CCCN(C)C2)cc1 (stereo not drawn)	3%	0.4%	8	0%
O=C1CCCN1CC#CCN1CCCC1	6%	1.4%	2&5&-3&-1	-4%
CC(=O)N1CCN(c2ccc(OC[C@H]3CO[C@](Cn4ccnc4)(c4ccc(Cl)cc4Cl)O3)cc2)CC1	?	0.9%	-4&-8&-6&1	8%
C=CCOC(=O)C1C(C(=O)O)C2(Cl)C(Cl)=C(Cl)C1(Cl)C2(Cl)Cl (stereo not drawn)	/	-1.0%	/	-8%
COC(=O)C1=C(c2ccc(-c3ccccc3)c(F)c2)C[C@@H]2CC[C@H]1N2C(=O)NCCOc1ccc(OC)cc1	/	2.3%	/	-20%
C=CCN=C(SCC(=O)c1ccc(Cl)cc1)c1c(O)n(C)c(=O)n(C)c1=O	0%	0.2%	1	-22%
COc1cc(/C=N/n2cnnc2)ccc1OC(=O)N(C)C	-8%	-0.5%	0	-1%
O=C(CCN1CCOCC1)NCC(=O)Nc1ccc(Br)cc1C(=O)c1ccccc1	0%	-0.1%	-4	-1%
O=C(CCNC(=O)N1C[C@H]2C[C@@H](C1)c1cccc(=O)n1C2)Nc1ccc(F)cc1	-3%	-2.1%	/	-12%
Cc1ccc(Cl)cc1-n1c(O)c(C=NCCCN2CCOCC2)c(=O)[nH]c1=O	1%	3.0%	4	-7%
CCOP(=O)(OCC)/C(C#N)=C/c1ccoc1	0%	2.0%	2	-15%
Cc1cc(C(=O)OCC(=O)Nc2ccc(F)cc2F)c(C)n1C1CC1	/	0.3%	/	-21%
O=C(O)c1ccc(N=Cc2c(O)[nH]c(=O)[nH]c2=O)cc1	1%	1.8%	/	11%
Cc1nn(Cc2ccccc2)c(C)c1C(=O)NCc1ccccc1F	-4%	-2.9%	5	-5%

Some of the compounds tested. The share of hits here may be higher or lower than overall.
